# Screening data as filed in PubChem.
# miR-21 reporter = miR-21 reporter, rising signal. Potency, µM (titrated, usually from 38.3 µM), for inactives: at the highest dose reporter change, positive = more light. 340,000 tested, under 10 active. HeLa miR-21 FLuc reporter, luciferase, 48 h; active = well fitted rising curve with a large enough effect; inconclusive = small, poorly fitted or top-dose-only effect; inactive = no such curve, though single readings can be large or run the other way;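 also: % of control where 0% means no effect; miR-21 action dims this reporter so a rising signal means less miR-21 action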
#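 Luminescence from a firefly luciferase reporter carrying a miR-21 binding site downstream, stably expressed under a CMV promoter in HeLa cells that make miR-21 endogenously, reports miRNA modulation after 48 h compound exposure up to approximately 40uM final.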
# Rango-impB inh = prevents formation of the Rango-importin beta complex. 340,000 compounds, 0.031% hits. Rango CFP/YFP FRET sensor + importin beta, 45 min. Potency, µM (top dose mostly 92.2 µM), for inactives: top-dose inhibition of complex formation. Q14974; active = rising FRET ratio curve, often small or poorly fitted; inconclusive = mostly compound fluorescence or quenching in the first reads; inactive = flat curves in all reads;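 also: potency is read from the fitted curve at half-maximal effect; 0% = DMSO wells and 100% = buffer wells lacking importin beta; nearly all actives have a fitted effect of over 15% in size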
#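 FRET biosensor (snurportin 1 IBB flanked by EYFP and cerulean), 50 nM, with compound 5 min, then 0.125 microM importin beta in PBS, 1 mM DTT, 0.02% Tween-20, 0.1% BSA. CFP/YFP ratio read after 45 min at room temperature; pre-read flags interference.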
# GLA inh pH 4.5 = alpha-galactosidase A (human) inhibition, pH 4.5; activity change, negative = inhibition, % at 105 µM; purified enzyme, 4-MU-alpha-Gal fluorescence, pH 4.5; P06280; 230,000 tested, under 10 active; inconclusive = small, poorly fitted or top-dose-only inhibition, or a rising curve; inactive = flat fitted curve, though single readings scatter; no compound was filed as active;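 also: 0% = full activity with enzyme and -100% = basal without enzyme; dose as in the result columns while the protocol names 77 µM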
# Target sequence (P06280 whole entry, looked up): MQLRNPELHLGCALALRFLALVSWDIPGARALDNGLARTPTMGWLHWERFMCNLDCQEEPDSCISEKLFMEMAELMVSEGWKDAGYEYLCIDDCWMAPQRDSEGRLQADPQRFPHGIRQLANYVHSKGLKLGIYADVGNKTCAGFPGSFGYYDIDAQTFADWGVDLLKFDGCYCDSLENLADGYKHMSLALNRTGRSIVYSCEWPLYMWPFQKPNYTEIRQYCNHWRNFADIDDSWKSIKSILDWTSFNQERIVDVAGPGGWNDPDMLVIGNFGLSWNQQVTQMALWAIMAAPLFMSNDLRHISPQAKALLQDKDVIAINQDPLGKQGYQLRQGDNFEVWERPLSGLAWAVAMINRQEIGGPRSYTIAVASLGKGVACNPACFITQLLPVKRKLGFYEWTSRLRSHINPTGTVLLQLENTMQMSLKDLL
# Rango dissoc inh = inhibitors of RanGTP-induced Rango-importin beta complex dissociation | AID 540253 | Potency, µM (highest dose often 46.1 µM), for the others: at the top dose activity change, negative = inhibition | 340,000 compounds, 0.071% hits | O95149+P62826 | Biochemical FRET Rango-importin beta, RanGTP-induced dissociation; active means falling FRET ratio curve, often poorly fitted, with flat reads before Ran was added; inconclusive means other falling curves, or compound fluorescence or quenching; inactive means flat or rising ratio curve;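 also: potency is read from the fitted curve at half-maximal effect; % of control where 0% means no effect; nearly all actives have a fitted effect of over 45% in size; -100% = wells without RanGTP and RCC1; the record marks most hits as doubtful in a second field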
#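 FRET read at 45 min, room temperature: inhibitors block the CFP/YFP signal rise when RanGTP (0.6 uM Ran, 2 mM GTP, 0.2 uM RCC1) frees Rango (0.1 uM) from importin beta (0.25 uM). Pre-read after 5 min compound exposure flags interference.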
# * = called active by the depositor; ? = inconclusive; . = no result given; [ ] = dose if it differs, or a comment. Only part of the results is shown; the hit share may differ from the screen's.
GLA inh pH 4.5	miR-21 reporter	Rango-impB inh	Rango dissoc inh	Compound
2	-9%	0.2%	5%	CCC(C)Sc1nnc(CNC(=O)C23CC4CC(CC(C4)C2)C3)n1C1CCCCC1 (stereo not given)
-1	-5%	6.8%	3%	O=C(CSc1nc2ccc([N+](=O)[O-])cc2[nH]1)c1ccc2ccccc2c1
9	-3%	-0.1%	7%	Cc1ccc2nc(-c3ccccn3)cc(C(=O)N3CCN(c4ncccn4)CC3)c2c1
-16	-7%	-3.9%	1%	c1ccc(Cc2noc(CN3CCCN(C4Cc5ccccc5C4)CC3)n2)cc1
0	3%	1.0%	-18%	CCOC(=O)c1cc2oc(C)cc2n1CC(=O)OC1CCCCC1
.	.	1.6%	1%	O=C(COC(=O)c1cnccn1)Nc1cc(S(=O)(=O)N2CCOCC2)ccc1Cl
2	0%	-0.4%	13%	CC(C(=O)NC(=O)NC1CCCCC1)N1CCN(c2ccccn2)CC1 (stereo not given)
.	.	4.5%	0%	CCOc1ccc(NC(=O)CN(C)C(=O)C2CCN(C(=O)c3ccc(Cl)cc3)CC2)cc1OCC
.	.	2.1%	29%	Cc1ccnc(NC(=O)c2ccc(NC(=O)CC3SC(N4CCCC4)=NC3=O)cc2)c1 (stereo not given)
.	.	2.3%	31%	COc1ccc(OCCOC(=O)CNC(=O)c2cccc(C)c2)cc1
-4	-1%	?	1%	O=C(CCC1CCCC1)Nc1ccccc1-c1ccccc1
-5	-2%	0.2%	-9%	CCSc1nnc(NC(=O)CSc2nc(C)cc(C)n2)s1
9	-9%	-3.6%	6%	Cc1ccc(/C=N/NC(=O)Cc2cccs2)o1
.	.	1.1%	1%	O=C(c1cc(-c2ccncc2)nc2ccccc12)N1CCOCC1
3	-19%	-0.5%	-21%	Cc1cc(=O)oc2cc(OC(C)C(=O)N3CCCc4ccccc43)ccc12 (stereo not given)
4	-16%	0.6%	10%	Cc1cc(C(=O)c2ccccc2)nc2ccccc12
1	-8%	-4.7%	1%	CCOC(=O)c1c(C)[nH]c(O)c1C=Nc1ccccc1
.	0%	-0.4%	0%	Cc1cccc(C)c1OCCCCN1CCCCC1
.	-15%	0.7%	14%	Cc1ccnc(Nc2nc(-c3ccccc3)cs2)c1
.	.	?	-8%	COc1ccc2c(COC(=O)CCS(=O)(=O)c3ccc(C)cc3)cc(=O)oc2c1
.	.	-1.5%	-14%	Cc1ccc(C(C)C)cc1OCC(=O)NC1CCCCCCC1
.	.	-3.1%	6%	CC(=O)Nc1cc(NC(C)=O)cc(C(=O)OCC(=O)c2ccc3c(c2)NC(=O)CO3)c1
-13	1%	-0.4%	31%	CC(=O)c1cccc(NC(=O)COC(=O)CCc2ccc(S(=O)(=O)N3CCOCC3)cc2)c1
.	.	-0.6%	0%	OCC[C@H]1C[C@@H](O)[C@H](O)[C@@]2(CCCO2)O1
-5	-7%	-4.3%	4%	COc1ccc(CCNC(=O)COc2ccc(-c3ccc(C)cc3)cc2)cc1OC

# Individual results from above:
# O=C(CSc1nc2ccc([N+](=O)[O-])cc2[nH]1)c1ccc2ccccc2c1 in Rango-impB inh has 6.8%
# CCOc1ccc(NC(=O)CN(C)C(=O)C2CCN(C(=O)c3ccc(Cl)cc3)CC2)cc1OCC in Rango-impB inh has 4.5%
# Cc1cc(=O)oc2cc(OC(C)C(=O)N3CCCc4ccccc43)ccc12 (stereo not given) in miR-21 reporter has -19%
# CCOC(=O)c1c(C)[nH]c(O)c1C=Nc1ccccc1 in GLA inh pH 4.5 has 1

# The listing continues:
GLA inh pH 4.5	miR-21 reporter	Rango-impB inh	Rango dissoc inh	Compound
-2	2%	-2.6%	-3%	CCc1ccccc1NC(=O)Nc1cccs1
5	6%	-0.3%	-4%	CCOc1cccc(C(=O)Nc2cccc(NC(=O)c3ccco3)c2)c1
1	-1%	-1.9%	2%	COc1ccc(Cc2nc3ccccc3n2CC(=O)N/N=C/c2ccc(O)cc2)cc1OC
-4	-54%	-1.1%	22%	Cc1ccnc(N2C(=O)c3ccccc3C2Nc2ccc3c(c2)OCCO3)c1 (stereo not given)
.	-3%	7.7%	3%	O=C(C1CCCN(Cc2ccccc2F)C1)N1CCCC1 (stereo not given)
.	3%	-3.7%	1%	O=C(CCNS(=O)(=O)c1ccc(Br)cc1)NCCc1ccccc1
-3	0%	?	?	CC(C(=O)O)N1C(=O)c2cccc3cccc1c23 (stereo not given)
-12	-13%	-4.9%	11%	CSc1nc(C)cc(NC(N)=O)n1
.	.	0.5%	1%	CC1(c2ccc3c(c2)OCCO3)NC(=O)N(CC(=O)Nc2ccccc2)C1=O (stereo not given)
0	-1%	0.2%	8%	O=C(Nc1cc(Cl)ccc1Oc1ccccc1)c1cnccn1
.	-2%	-3.9%	3%	Cc1c(Cc2ccccc2)c(=O)oc2c(C)c(OCC(=O)N[C@@H](Cc3ccccc3)C(=O)O)ccc12
.	7%	0.3%	1%	CCOC(=O)CNC(=O)Cn1cnc2sc(C)c(S(=O)(=O)N3CCOCC3)c2c1=O
.	-6%	-2.5%	17%	Cc1csc(NC(=O)c2ccc(=O)[nH]c2)n1
.	27%	?	-11%	Cc1ccc2c(CNCc3ccccc3)cc(=O)oc2c1
?	2%	?	?	COC(=O)C1=CN(CCCN2CCCC2=O)C=C(C(=O)OC)C1c1ccccc1C(F)(F)F
16	-4%	0.7%	-3%	O=C(NC(Cc1ccc2c(c1)OCO2)C(=O)N1CCCC1C(=O)O)c1ccccc1 (stereo not given)
0	-42%	-0.2%	-1%	COc1ccc(C(=O)Nc2ccc(N3CCOCC3)cc2)cc1OC
.	-2%	-3.2%	15%	O=C(NC(=S)NNC(=O)c1ccccc1O)c1ccc([N+](=O)[O-])cc1
2	0%	-5.8%	1%	Cc1nc2nc(C)c(CCC(=O)O)c(C)n2n1
15	-5%	2.3%	9%	O=C(CCC1CCCN(Cc2ccc(O)c(Cl)c2)C1)NCc1ccccc1F (stereo not given)
.	.	3.7%	3%	O=C(CSc1cn[nH]n1)Nc1ccccc1F
-3	-26%	?	-25%	CC(=O)Nc1cccc(N/C=C(\C=O)c2nc3ccccc3o2)c1
.	-6%	?	-5%	COCCCNC(=S)N(CCCO)Cc1cc2cc3c(cc2[nH]c1=O)OCO3
-7	-11%	0.5%	12%	CC1(C)CC(=O)C=C(NCCc2c[nH]c3ccccc23)C1
-17	5%	-3.4%	5%	O=C(CSc1nnc(CCc2ccccc2)n1-c1ccc(Cl)cc1)NCc1ccccc1
.	-4%	1.4%	-1%	CC(C)Cc1nnc(NC(=O)CCC(=O)Nc2ccccc2)s1
3	-2%	-1.8%	10%	COc1ccc(OC)c(NC(=O)CN2C(=O)c3ccccc3S2(=O)=O)c1
-4	1%	0.1%	-4%	O=C(Cn1cncn1)N/N=C/c1cc([N+](=O)[O-])ccc1O
-2	1%	-3.8%	-3%	COC(=O)C(NC(=O)c1ccccc1)=C1CCCCC1
8	-1%	1.2%	-1%	CCOC(=O)C1=C(CS(=O)(=O)c2ccc(F)c(C)c2)NC(=O)NC1c1ccc(O)c(O)c1 (stereo not given)
-4	4%	?	-2%	COc1ccc(C(=O)CN2CCN(c3cc(C)nc4ccccc34)CC2)cc1
-2	18%	1.0%	1%	O=S(=O)(/C=C/c1ccccc1)Oc1ccccc1
2	-39%	?	-9%	COc1ccc(NC(=O)c2sc(=S)[nH]c2N)cc1
.	.	?	7%	O=C(C1COc2ccccc2O1)N1CCN(c2ccc(C(F)(F)F)cn2)CC1 (stereo not given)
-4	-6%	?	-17%	CCCCn1c(C(C)O)nc2ccccc21 (stereo not given)
-3	-71%	0.9%	-5%	O=C(NC(=S)NC1CCCCCC1)c1cncc(Br)c1
.	-10%	?	?	CCOC(=O)c1cc2ccc3ccccc3c2oc1=O
.	-1%	1.0%	-1%	O=C(C1CC(=O)N(c2ccc(F)cc2)C1)N1CCOCC1 (stereo not given)
.	.	-2.4%	1%	CCCN(CCC)CCNC(=O)Cn1cnc2sc(C)c(S(=O)(=O)N3CCOCC3)c2c1=O
.	-5%	-1.4%	-14%	Cc1ccc(S(=O)(=O)N2CCC3(CC2)OCCO3)c(C)c1
.	.	-1.6%	12%	CC(C)C[C@@H](CNCC(=O)[C@H](CC(C)C)NC(=O)c1[nH]cnc1C(=O)N[C@@H](C)CN)NC(=O)c1nc[nH]c1C(=O)N[C@@H](CC(=O)O)C(=O)O
.	.	-0.2%	12%	COc1cc(/C=N/NC(=O)c2ccc(NS(=O)(=O)c3cccs3)cc2)cc(OC)c1O
.	.	-0.6%	6%	COc1ccccc1CNC(=O)CN1C(=O)NC2(CCCCCC2)C1=O
.	-7%	0.7%	1%	CCOC(=O)c1c(C)[nH]c(C)c1S(=O)(=O)NCCc1sccc1C
3	-3%	-3.0%	-24%	C#CCOCCOCCOCCNc1nc(N2CCN(C(=O)[C@H](CCC(=O)O)n3cc(C(N)Cc4ccc(O)cc4)nn3)CC2)nc(N2CCN(C(=O)[C@H](CCC(=O)O)n3cc(C(N)Cc4ccc(O)cc4)nn3)CC2)n1 (stereo not given in full)
-3	-8%	?	5%	CCN(CC)CCCN=Cc1c(O)n(-c2ccc(C)cc2)c(=O)c2ccccc12
-3	-4%	?	-15%	NC(=O)CNC(=O)C1CCCc2c1[nH]c1ccc(Cl)cc21 (stereo not given)
2	-7%	-0.2%	-4%	Cc1ccccc1C(C(=O)NC1CCCC1)N(C(=O)Cc1cccs1)c1ccc2c(c1)OCCO2 (stereo not given)
-12	-2%	1.2%	4%	CCCCS(=O)(=O)C1CCS(=O)(=O)C1 (stereo not given)
.	-2%	-1.2%	-5%	Cc1ccc(N(C(=O)c2csnn2)C(C(=O)NC2CCCCC2)c2cccnc2)cc1 (stereo not given)

# Next part.
GLA inh pH 4.5	miR-21 reporter	Rango-impB inh	Rango dissoc inh	Compound
2	-8%	?	-13%	COCCN1CCn2c(nc3cc(NC(=O)c4ccc(OC)cc4)ccc32)C1
7	-5%	3.6%	27%	Cc1ccc(CNC(=O)C2CCCN(S(=O)(=O)c3c(C)noc3C)C2)cc1 (stereo not given)
.	5%	-2.3%	0%	O=C1CC(N2CCN(c3ccc(Cl)cc3)CC2)C(=O)N1c1ccccc1 (stereo not given)
.	.	0.1%	20%	CCc1ccc(NC(=O)C2=CC=CN3CCS(=O)(=O)N=C23)cc1
-4	-2%	3.7%	2%	Cc1ccc(CN2C(=O)CCC2C(=O)NC2CCCC2)cc1 (stereo not given)
-3	-31%	.	.	COc1ccc(C2C(C#N)=C(N)N3C(=C2C#N)Sc2ccccc23)cc1 (stereo not given)
-1	-5%	1.4%	1%	Cc1cc(C)nc(SCCS(=O)(=O)Cc2ccc(Cl)cc2)n1
3	-2%	3.4%	0%	CN1CCN(S(=O)(=O)c2cccs2)CC1
-15	-39%	-3.2%	15%	c1ccc2c(c1)[nH]c1c3ccccc3sc21
-5[21.1 µM]	7%	1.0%	-1%	Cc1ccc(-n2ncc(C(=O)Nc3cc(Cl)ccc3Cl)c2C2CCNCC2)cc1
2	-39%	1.5%	3%	C/C(=N\NC(=O)Nc1ccccc1)c1ccccc1
.	.	-1.9%	-5%	CSc1ccc(CN(C)CC(=O)NC(=O)NCCC2=CCCCC2)cc1
.	.	-0.5%	7%	Cc1ccc(CN2C(=O)C(CC(C)C)Nc3ncnc(N4CCOCC4)c32)cc1 (stereo not given)
2	3%	?	?	COc1ccc([C@H]2C(C#N)=C([S-])N[C@](C)(O)[C@@H]2[n+]2ccccc2)cc1
-10	1%	6.9%	-3%	COc1ccc(NC(=O)CC2C(=O)N(Cc3ccco3)C(=S)N2C(C)C)cc1 (stereo not given)
.	.	-3.8%	2%	CCC1Nc2ncnc(N3CCc4ccccc4C3)c2N(Cc2ccc(Cl)cc2)C1=O (stereo not given)

# 5 of the entries above in order of their number in GLA inh pH 4.5, lowest first.
GLA inh pH 4.5	miR-21 reporter	Rango-impB inh	Rango dissoc inh	Compound
-15	-39%	-3.2%	15%	c1ccc2c(c1)[nH]c1c3ccccc3sc21
-3	-31%	.	.	COc1ccc(C2C(C#N)=C(N)N3C(=C2C#N)Sc2ccccc23)cc1 (stereo not given)
-1	-5%	1.4%	1%	Cc1cc(C)nc(SCCS(=O)(=O)Cc2ccc(Cl)cc2)n1
2	3%	?	?	COc1ccc([C@H]2C(C#N)=C([S-])N[C@](C)(O)[C@@H]2[n+]2ccccc2)cc1
3	-2%	3.4%	0%	CN1CCN(S(=O)(=O)c2cccs2)CC1
